High-throughput results as filed in PubChem BioAssay.
Menin-MLL FL inh: inhibitors of human menin-MLL interaction, wild-type MLL peptide; Fluorescence polarization, fluorescein-MLL peptide displacement from menin; FP activity change, % at 61.4 µM; 290,000 tested, under 10 active; AID 1766; inconclusive = falling polarisation curve, or a change in total fluorescence; inactive = total fluorescence flat and polarisation flat or rising; no compound was filed as active; the % refers to the polarisation; negative = inhibition;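 also: % of control where 0% means no effect; inhibitors lower the polarisation; unlabelled MLL peptide was the positive control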
ClpP mod: qHTS Assay for Activators of ClpP; Potency, µM (highest dose often 57.5 µM), inactives show at the top dose activity change, negative = active; purified B. subtilis ClpP, FRET peptide cleavage, 20 min; AID 651965, 2013; actives 1.9% (n = 340,000); ATP-dependent Clp protease proteolytic subunit (Bacillus subtilis (strain 168)), P80244; active = well fitted falling curve with a large enough effect; inconclusive = small, poorly fitted or top-dose-only effect; inactive = no such curve, though single readings can be large or run the other way; also: potency is read from the fitted curve at half-maximal effect; the source files actives as falling curves though it sought activators and does not explain the sign; nearly all actives have a fitted effect of over 65% in size; many hits overshoot -100%
Target sequence (P80244 whole entry, looked up): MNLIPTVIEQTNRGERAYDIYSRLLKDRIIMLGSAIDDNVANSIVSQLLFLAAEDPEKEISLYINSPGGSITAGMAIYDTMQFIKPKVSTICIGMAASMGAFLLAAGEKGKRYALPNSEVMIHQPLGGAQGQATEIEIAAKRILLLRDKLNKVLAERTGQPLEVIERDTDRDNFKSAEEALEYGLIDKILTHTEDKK
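Purified B. subtilis ClpP, 10 microg/mL final in Tris/HCl pH8 with KCl, BSA, glycerol and Tween-20, cleaved an Abz/nitrotyrosine-quenched decapeptide. Fluorescence (ex 320, em 430) was read at 0 and 20 min at room temperature. Delta was normalized to 5.8 microM ADEP and DMSO/no-enzyme controls.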
PINK1 expr mod: modulators of PINK1 expression. PINK1 immunofluorescence, high-content cytometry, 24 h. Potency, µM (top dose mostly 76.6 µM), inactives show at the top dose activation (PINK1 increase), most hits filed as activators. actives 0.2% (n = 410,000); active = well fitted activation curve with a large enough effect; inconclusive = small, poorly fitted or top-dose-only effect; inactive = flat fitted curve, though single readings scatter; cell line not stated here;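 also: potency is read from the fitted curve at half-maximal effect; % of control where 0% means no effect; nearly all actives have a fitted effect of over 65% in size; a mitochondrial uncoupler was the plate control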
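Cells are seeded, rested 12 hours, then given compound at five concentrations or DMSO for 24 hours. After fixation, blocking and antibody staining, PINK1 amount and mitochondrial localization are scored; CCCP serves as control.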
Sfp PPTase inh: Sfp phosphopantetheinyl transferase inhibition; Q9F4F7; Biochemical Sfp PPTase activity, qHTS; Potency, µM, inactives show max response, negative = inhibition, usual class: inhibitors; actives 3.5% (n = 310,000); AID 1490; active = well fitted inhibition curve with a large enough effect; inconclusive = small, poorly fitted or top-dose-only effect, or another doubt; inactive = no such curve, though single readings can be large or run the other way;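 also: the enzyme is Sfp with the accession as filed and its product quenches rhodamine fluorescence; potency is read from the fitted curve at half-maximal effect; 0% = enzyme reaction without inhibitor and -100% = no enzyme wells; top concentration of the series not given in the record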
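Sfp 15 nM + cpd, 15 min RT; start w/ rhodamine-CoA 5 uM, BHQ-2-YbbR 12.5 uM (final); 50 mM Hepes pH 7.6, 10 mM MgCl2, 0.01% NP-40, 0.01% BSA; read 525/598 nm at 0 and 30 min.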
TRPV1 PAM: potentiators of human vanilloid receptor 1 (TRPV1); Q8NER1; TRPV1-expressing cells, Fluo-8 calcium influx, capsaicin EC20 potentiation; host cell line not named in the record; control for the full effect not named in the record; potentiation, % at 8.33 µM; actives 0.02% (n = 320,000); AID 540277; active means potentiation above 80%; inconclusive means 30% to 80%; inactive means below 30%; also: 0% is about no effect
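TRPV1-expressing cells were cultured overnight at 35.5C and loaded with Fluo-8 calcium dye for 40 to 90 min at room temperature. After a 10 s baseline, compound was added and calcium influx was read kinetically for 3 min (ex 480/em 520 nm).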
TRPML1 ag: agonists of human TRPML1 channel | Q9GZU1 | TRPML1-expressing cells, Ca2+ dye fluorescence, FDSS; host cell line not named in the record; reference of the full effect not given here | activation, % (concentration not given with the values) | actives 0.12% (n = 410,000) | AID 624414; in the data active = activation above about 50%; inconclusive = about 30% to 50%; inactive = below about 30%; also: 0% is about no effect; the text of the record puts the active cut at 80%
Target sequence (Q9GZU1 whole entry, looked up): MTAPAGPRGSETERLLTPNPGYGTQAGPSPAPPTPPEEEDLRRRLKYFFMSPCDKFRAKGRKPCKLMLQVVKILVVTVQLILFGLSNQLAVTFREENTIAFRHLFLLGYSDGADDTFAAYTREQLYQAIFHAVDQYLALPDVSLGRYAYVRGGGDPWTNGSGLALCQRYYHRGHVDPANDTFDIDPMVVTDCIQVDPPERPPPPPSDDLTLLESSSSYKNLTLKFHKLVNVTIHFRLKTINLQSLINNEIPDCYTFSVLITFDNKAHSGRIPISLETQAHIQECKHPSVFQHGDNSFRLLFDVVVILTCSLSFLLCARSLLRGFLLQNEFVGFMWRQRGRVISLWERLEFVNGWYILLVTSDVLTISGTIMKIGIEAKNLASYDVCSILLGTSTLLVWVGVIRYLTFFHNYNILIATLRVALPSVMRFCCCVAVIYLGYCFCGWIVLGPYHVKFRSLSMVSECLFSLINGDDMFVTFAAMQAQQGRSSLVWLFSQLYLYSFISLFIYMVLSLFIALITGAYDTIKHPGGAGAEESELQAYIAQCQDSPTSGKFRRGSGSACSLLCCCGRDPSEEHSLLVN
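Tetracycline-induced TRPML1-DL cells are seeded and incubated overnight before loading with a no-wash Ca2+ dye and quencher. Agonist activity is taken from the 110 s fluorescence read following compound pin-transfer on an FDSS, before EC80 54-4 challenge.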
TRPML1 blocker: inhibitors of human TRPML1 channel | Q9GZU1 | TRPML1-inducible cells, Ca2+ dye fluorescence, FDSS; stronger effect = lower value; inhibition of EC80 agonist-evoked calcium signal | activity change, negative = inhibition, % (no concentration beside the values) | actives 0.02% (n = 390,000); in the data active means activity change below about -50%; inconclusive means about -30% to -50%; inactive means above about -30%;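 also: stimulus is agonist 54-4 at its EC80 concentration; % is scaled to controls: 0 for no effect and ±100 for the full control effect; compound concentration not given in the record; the text of the record puts the active cut at -80%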
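TRPML1-DL cells, Tet-induced overnight (~16 h, 37 °C) at 1,500 cells/well, were loaded with Ca8 no-wash dye plus quencher for 45-90 min at room temperature. Compounds were pinned during FDSS kinetic reading; agonist 54-4 at EC80 (4 uM final) then added.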
Numbers without * were called inactive; ? = inconclusive; nt = not tested or not shown; [ ] = another dose, or the depositor's remark.

SMILES	Menin-MLL FL inh	ClpP mod	PINK1 expr mod	Sfp PPTase inh	TRPV1 PAM	TRPML1 ag	TRPML1 blocker
COc1cc(C(C(=O)NC2CCCC2)N(Cc2ccccc2)C(=O)c2snc(C(N)=O)c2N)ccc1O (centres undefined)	12	nt	1.7%	5%	6	-0.3	-18
COc1ccccc1CNC(=O)COC(=O)c1ccccc1SCC(=O)N1CCCC1	nt	-4.8%	1.0%	nt	1	-0.3	19
Cc1ccc(C)c(NC(=O)CCN2CC(C)OC(C)C2)c1 (centres undefined)	?	-1.4%	-0.2%	27%	-3	-1.1	37
Cc1nn(-c2ccccc2)c(C)c1/C=N/NC(=O)c1cnccn1	1.3	1.1%	7.1%	8%	nt	-0.9	28
CC(=O)c1c(C)[nH]c(C(=O)OCc2ccc(F)cc2Cl)c1C	-4.3	-11%	3.2%	-6%	-23	0.2	15
CC(C)(CO)Nc1nc(Nc2ccccc2)nc(Nc2ccccc2)n1	0.7	0.4%	-1.1%	-8%	0	1.8	-16
O=C(CSc1nccn1-c1ccc(F)cc1)Nc1ccc2c(c1)OCO2	-1.9	-0.9%	1.0%	-16%	15	0.6	8
COc1cc2c(cc1OC)C(C(=O)Nc1ccc3c(c1)OCCO3)C1c3ccccc3CCN1C2=O (centres undefined)	2.3	0.2%	-0.1%	1%	2	0.1	1
O=C(Oc1ccc2c(c1)OCO2)c1ccncc1	0.5	0.7%	0.8%[38.3 µM]	17%	-4	0.1	16
O=C(Nc1ccc2c(c1)CCCN2C(=O)c1ccco1)c1cc([N+](=O)[O-])ccc1Cl	nt	-3.2%	-1.8%	nt	9	1.1	28
O=C(Nc1ccccc1N1CCOCC1)c1cccnc1Cl	0.6	0.5%	0.8%	19%	6	-0.5	4
CN(C)c1ccc([C@@H]2[C@@H]([N+](=O)[O-])[C@H]3C=Cc4ccccc4N3[C@H]2C(=O)c2ccc(Cl)cc2)cc1	?	-13%	17%	-14%	3	8.4	6
O=C(c1cccs1)N1CCC(c2nc3c(nnn3Cc3c(Cl)cccc3Cl)c(=O)[nH]2)CC1	nt	nt	0.4%	-8%	1	-0.2	7
O=C(Oc1ccc2c(c1)CCC2)N1CCOCC1	0.4	0.4%	3.0%	14%	17	-0.8	4
NS(=O)(=O)c1ccc(CCNC(=O)c2cc(-c3ccccn3)nc3ccc(Br)cc23)cc1	12	nt	3.0%	-21%	3	0.1	30
CCC1=C(c2ccc(OC)cc2)CCC(C(=O)O)C1C (centres undefined)	nt	nt	-0.3%	nt	nt	2.2	-4
CN1CCN(c2c([N+](=O)[O-])cnc3ccccc23)CC1	nt	0.0%	0.2%	nt	nt	-0.6	-9
CC(=O)NC(CCS(C)(=O)=O)C(=O)Nc1c(C)cccc1C (centres undefined)	0.0	-1.3%	1.3%	3%	-4	-0.1	3
CC(C(=O)NC(=O)NC1CCCCC1)N1CCN(c2ccc(O)cc2)CC1 (centres undefined)	nt	-3.2%	-1.3%	nt	?	1.9	-19
COc1cc(OC)cc(C(=O)NNC(=O)CNC(=O)c2cccs2)c1	nt	0.6%	0.0%	nt	-26	-0.1	-7
O=C(CN1CC(=O)Oc2ccccc21)OCC(=O)c1cccc(Br)c1	4.1	1.1%	0.9%	71µM*	10	0.6	13
CCOc1ccc(Cc2nn[nH]n2)cc1	6.3	-7.3%	-1.7%	-10%	-1	-0.5	5
Cc1ccc(Nc2nnc(SCC(=O)Nc3cc(C(=O)O)ccc3C)s2)c(C)c1	-1.0	1.1%	1.1%	6%	22	-0.9	-5
Cc1cccc(C(=O)N[C@H](C(=O)Nc2nccs2)C(C)C)c1	5.2	-5.6%	0.4%	-14%	-6	-0.1	17
Cc1ccc(OCc2cc(C(=O)N(C)CC3CCOCC3)no2)cc1C	-5.7	0.1%	1.2%	6%	-9	-0.5	26
Next section
SMILES	Menin-MLL FL inh	ClpP mod	PINK1 expr mod	Sfp PPTase inh	TRPV1 PAM	TRPML1 ag	TRPML1 blocker
CC(C)(C)c1ccc(S(=O)(=O)NC(=O)C2(C)CCN2C(=O)CC2CC2)cc1 (centres undefined)	nt	-1.7%	1.4%	nt	nt	-0.1	nt
CCOc1cccc2sc(N3CCN(C(=O)c4ccc5ncsc5c4)CC3)nc12	nt	22µM*	-2.9%	nt	-16	1.1	11
Cc1ccc(C(=O)CN2C(=O)NC3(CCc4ccccc43)C2=O)c(C)c1 (centres undefined)	nt	nt	0.9%	nt	-11	-0.2	-8
CCN(CC)c1ccc(NC(=O)C2CC(=O)N(Cc3ccccc3)C2)cc1 (centres undefined)	-1.7	nt	-0.1%	-22%	5	1.1	-6
CC1C(=O)C(C)C(c2cc(Br)ccc2O)NC1c1cc(Br)ccc1O (centres undefined)	nt	nt	-1.9%	nt	nt	-0.6	-16
Cc1csc2ncnc(N3CCN(S(=O)(=O)c4cccc(C(F)(F)F)c4)CC3)c12	nt	-7.5%	-0.7%	7%	9	1.2	64
C=C1CCN(C(Cc2ccccc2)C(=O)O)S(=O)(=O)c2ccccc21 (centres undefined)	4.9	nt	nt	19%	nt	1.5	-3
Cc1ccccc1OCCN1C(=O)NC2(CCc3ccccc32)C1=O (centres undefined)	-0.4	-2.0%	3.7%[38.3 µM]	-1%	7	-0.2	12
COc1ccc(CCNC(=O)Cn2c(=O)cnc3ccccc32)cc1	-2.7	-30%	4.8%	2%	?	-1.7	19
CCOC(=O)c1c(CSc2nc(C)cc(C)c2C#N)n(C)c2cc(Br)c(OC(C)=O)cc12	3.7	-4.9%	-0.1%	2%	-2	-0.3	-16
CCOC(=O)c1c(NC(=O)CN2C(=O)NC3(CCC(C)CC3)C2=O)sc(C)c1-c1ccc(C)cc1 (centres undefined)	1.5	-6.9%	23%	-11%	-4	1.4	-20
CN(C)S(=O)(=O)c1ccc(NC(=O)c2ccc([N+](=O)[O-])cc2)cc1	1.1	1.1%	2.0%	6%	19	0.4	27
CCC1(c2ccccc2)NC(=O)N(CC(=O)N(C)CC(=O)Nc2cccc(OC)c2)C1=O (centres undefined)	nt	-1.8%	0.9%	nt	15	0.8	-1
Fc1ccc(C2CC(c3ccccc3)Nc3ncnn32)cc1 (centres undefined)	1.2	-2.7%	-1.5%	-11%	-9	0.5	11
O=C(Nc1ccc(-n2cnnn2)cc1)c1cccc(S(=O)(=O)N2CCCC2)c1	nt	0.9%	-1.0%	nt	-12	0.1	-14
C/C(=N\NC(=O)C(O)c1ccccc1)c1ccc(Br)s1 (centres undefined)	-1.9	-0.7%	1.1%	-6%	-6	1.7	-5
Cc1cc(C(=O)Nc2c(F)cc(F)cc2Br)n(-c2ccccc2)n1	6.0	0.1%	4.4%	17%	18	-0.5	15
CCC(C(=O)OCC(=O)NC(=O)c1ccccc1)c1ccccc1 (centres undefined)	nt	1.5%	0.6%	nt	13	0.6	-11
Cc1ccc(C(=O)COC(=O)c2ccco2)cc1C	nt	0.4%	-0.4%	-1%	-12	0.6	-19
CCC(C)Sc1ccc([C@H]2N[C@@](Cc3ccccc3)(C(=O)OC)[C@H]3C(=O)N(C)C(=O)[C@@H]23)cc1 (some centres undefined)	nt	-1.1%	5.1%	nt	-9	0.1	-3
CCCCSCCCNC(=O)c1ccc(CS(=O)(=O)c2ccccc2OC)o1	-3.0	1.5%	2.0%	12%	11	0.3	-20
Cc1cc(NC(=O)c2ccc([N+](=O)[O-])cc2)n(C)n1	-3.7	nt	-0.8%	10%	4	1.0	-7
COC(=O)c1cn(Cc2cccnc2)c(=O)c2ccccc12	0.4	nt	0.4%	6%	-1	0.3	25
Cc1cc(C)cc(C(=O)Nc2nc3ccccc3[nH]2)c1	3.5	nt	11%	35%[activator]	-5	2.0	16
CC(=O)OCC#CCSc1nc2ccccc2n1C	2.6	-15%	1.6%	5%	?	0.9	-11
Remaining list, next part.
SMILES	Menin-MLL FL inh	ClpP mod	PINK1 expr mod	Sfp PPTase inh	TRPV1 PAM	TRPML1 ag	TRPML1 blocker
Cc1onc(-c2ccccc2Cl)c1C(=O)OCc1nnc(-c2ccccc2)o1	nt	2.4%	-0.1%	nt	-12	0.7	45
O=C(CSC1CC(=O)N(c2ccc(C(=O)O)cc2)C1=O)Nc1ccc(Cl)cc1 (centres undefined)	5.9	-0.8%	-0.1%	13%	4	0.7	6
CCC(=O)Nc1nc2c(c(=O)[nH]1)CCCC2	-0.9	nt	4.5%	16%	3	1.3	-19
Cc1cccc(NC(=O)c2ccc3c(c2)C(=O)N(c2ccccc2C)C3=O)n1	nt	1.0%	1.8%	nt	-18	2.4	-3
CC(C(=O)N1CCOCCOCCOCCOCCOCC1)N1C(=O)c2ccccc2C1=O (centres undefined)	0.0	nt	-2.2%	14%	-1	-0.6	-15
Cc1cc2c(cc1S(=O)(=O)N(C)C1CCCCC1)OCC(=O)N2	-6.7	2.8%	3.8%	2%	-16	-0.3	8
COc1cccc(CNC(=O)CCC2CCCN(Cc3cc4ccccc4o3)C2)c1 (centres undefined)	-1.8	nt	-3.4%	22%	-12	1.8	-5
COCCC(=O)N1CCC(Oc2ccc(C(=O)N3CCCCC3CCO)cc2)CC1 (centres undefined)	-4.6	0.8%	1.2%	16%	-3	-0.5	-8
Cc1ccc(OCC(=O)Oc2ccc(C(C)C)cc2)cc1	2.4	-2.8%	4.0%	6%	6	-0.4	-8
CC1CCN(S(=O)(=O)c2ccc3nc(-c4ccccn4)cc(C(=O)NCCN(C)Cc4ccccc4)c3c2)CC1	0.2	-1.5%	4.2%	17%	9	-0.2	4
O=C(CSc1nnc(NC(=O)c2ccccc2F)s1)NCc1ccc(F)cc1	4.9	0.5%	3.9%	-14%	2	-0.3	-1
Cc1ccc(NC(=S)N(CCCN2CCCC2)Cc2cccn2Cc2ccc(Cl)cc2)cc1	1.2	nt	1.5%	-7%	1	-0.2	-4
COc1ccc(S(=O)(=O)N2CCOC2CNC(=O)C(=O)NCc2cccnc2)cc1OC (centres undefined)	-2.3	0.5%	-1.2%	-4%	?	-0.6	8
CC(=O)Nc1cccc(NC(=O)c2ccc(C(=O)Nc3cccc(NC(C)=O)c3)nc2)c1	10	nt	?	15%	4	-0.6	-2
